Compound activity from PubChem BioAssay.
Beta apoptosis = blocks beta cell apoptosis | INS-1E cytokine-induced death, ATP luminescence, 48 h; percent of positive-control rescue, neutral wells zero | protection from apoptosis, % (concentration not given with the values) | 300,000 tested, 0.8% active | AID 435005;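 active = all replicates at 75% or more, or half of them and the mean; inconclusive = half reach 75% but not the mean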;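 note: 0% = cytokine-treated negative control wells and 100% = positive control rescue; higher means more ATP so stronger rescue from cytokine killing; wells of about 40 µL received 100 nL stock; the first replicate is given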
AF4-AF9 inh = blocks AF4 peptide binding to human AF9. P42568. AlphaScreen, biotin-AF4 peptide binding to FLAG-AF9. inhibition, % at 10 µM. 350,000 tested, 0.47% active;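 active = every replicate reaching a set inhibition limit, whatever the replicate mean, cut at about 25% in these data; inconclusive = mean inhibition reaches that limit but some replicates miss it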;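 note: 0% = plate neutral control median and 100% = total signal loss; the record names both 10 and 1 µM as test concentration; the first replicate is given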
Target sequence (P42568 whole entry, looked up): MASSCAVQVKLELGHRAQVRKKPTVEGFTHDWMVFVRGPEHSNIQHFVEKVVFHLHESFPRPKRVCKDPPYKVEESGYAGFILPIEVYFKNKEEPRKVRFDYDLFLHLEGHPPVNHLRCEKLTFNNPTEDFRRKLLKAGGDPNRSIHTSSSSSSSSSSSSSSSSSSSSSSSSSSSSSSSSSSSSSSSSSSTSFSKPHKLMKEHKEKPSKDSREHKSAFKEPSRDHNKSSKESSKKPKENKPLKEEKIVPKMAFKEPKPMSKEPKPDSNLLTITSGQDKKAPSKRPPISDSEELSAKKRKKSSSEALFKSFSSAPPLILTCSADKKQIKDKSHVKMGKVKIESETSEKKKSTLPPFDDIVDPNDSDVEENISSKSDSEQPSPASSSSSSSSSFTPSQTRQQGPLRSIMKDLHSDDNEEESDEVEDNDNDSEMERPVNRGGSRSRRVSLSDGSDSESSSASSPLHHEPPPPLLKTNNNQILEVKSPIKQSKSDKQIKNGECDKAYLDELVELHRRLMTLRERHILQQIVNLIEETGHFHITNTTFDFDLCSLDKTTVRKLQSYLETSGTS
RanGTP-Impb inh = inhibitors of RanGTP-importin-beta interaction, primary screen, biochemical, FRET, CFP-Ran, YFP-importin-beta, homogeneous. cell-free CFP-Ran/YFP-importin-beta FRET ratio. inhibition, % (test concentration not listed). 300,000 tested, 1.1% active. AID 2216;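 active = most replicates above 15%; inconclusive = exactly half above 15%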;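 note: 0% = DMSO wells and 100% = Ran loaded with GDP instead of GTP; wells of about 40 µL received 100 nL stock; the first replicate is given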
ALR H2O2 inh = human ALR oxidase inhibition via reduced H2O2 | 290,000 tested, 3.8% active | AID 485317 | inhibition, % (test concentration not listed) | purified ALR, DTT oxidation, H2O2 HRP-luminol luminescence | P55789;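 active = mean and each replicate at 75% or more; inconclusive = only one of the two met; inactive = neither met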;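 note: stock transfer was 7.5 nL into about 7.5 µL; 0% = neutral wells and 100% = wells with inactivated enzyme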
Target sequence (P55789 whole entry, looked up): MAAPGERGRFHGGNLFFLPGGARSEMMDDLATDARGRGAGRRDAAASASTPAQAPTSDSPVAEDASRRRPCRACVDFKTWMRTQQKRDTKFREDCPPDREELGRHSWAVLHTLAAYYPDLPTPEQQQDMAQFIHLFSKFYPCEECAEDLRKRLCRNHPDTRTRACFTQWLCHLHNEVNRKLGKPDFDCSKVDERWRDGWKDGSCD
FGF22 binding = binders of recombinant human FGF22 by thermal shift; Q9HCT0; SYPRO orange fluorescence; percent of sucrose octasulfate shift, DMSO zero; calls only at 9.99 µM; 340,000 tested, 1.5% active;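 active = melting point raised past a set limit in the mean and every replicate; inconclusive = no clear call; three in four hits are not shown here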
Target sequence (Q9HCT0 whole entry, looked up): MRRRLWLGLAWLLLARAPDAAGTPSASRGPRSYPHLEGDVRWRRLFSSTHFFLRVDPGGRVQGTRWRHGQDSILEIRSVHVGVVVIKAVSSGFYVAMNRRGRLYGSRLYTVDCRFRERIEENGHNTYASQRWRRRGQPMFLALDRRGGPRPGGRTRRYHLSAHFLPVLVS
Calb FLC = affects C. albicans growth with fluconazole; C. albicans CaCi-2 (fluconazole-resistant clinical isolate) + fluconazole, Alamar Blue growth, 48 h; growth inhibition, % (no concentration beside the values); 300,000 tested, 0.57% active;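 active = most replicates above 75%; inconclusive = exactly half above 75%; inactive = most below 75%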;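 note: all wells also contain fluconazole at 8 µg/ml as a sub-toxic cotreatment; 0% = median of DMSO wells and 100% = median of geldanamycin control wells; wells of about 8 µL received 7.5 nL stock; the first replicate is given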
T cruzi inh = blocks replication of Trypanosoma cruzi. inhibition, % (concentration not given with the values). AID 1885. T. cruzi beta-gal in NIH3T3, luminescence, 90 h. 300,000 tested, 1.4% active;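 active = mean inhibition across valid replicates above about 55%, limit read from the data; inconclusive = mean below that limit but half or more replicates reach it; inactive = mean below it, under half of replicates reach it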;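 note: signal also drops with host cell toxicity which is not excluded here; 0% = plate median of DMSO wells and 100% = zero luminescence signal; higher percent means less beta-gal luminescence so fewer parasites; stock transfer was 50 nL into about 50 µL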
rRNA inh HTS = inhibitors of bacterial rRNA selective over humanized ribosomes. E. coli WT GFP vs humanized-ribosome RFP mutants, fluorescence, 24 h; active compounds read low; DMSO median 0, no signal -100. GFP signal change (wild-type ribosome), % (concentration not given with the values). 350,000 tested, 1.6% active. AID 720706;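 active = significant combined selectivity score with lowered wild-type GFP, culture density cut under 30%, mutant RFP and density less affected; inactive = any of these conditions unmet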; note: one replicate is shown; some compounds called inactive have numbers as strong as hits
rRNA inh HTS OD600 = also measured in rRNA inh HTS; calls as there; OD600 change, %; measured here: OD600 growth;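 optical density of the mix in the first replicate; 0 = DMSO median and -100 = no signal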
rRNA inh HTS RFP = recorded beside rRNA inh HTS, whose call it bears; RFP signal change, %; measured here: RFP humanized mutant strains;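 first replicate; 0 = DMSO median and -100 = no signal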
* = called active by the depositor; i = inactive; ? = inconclusive; . = no result given; + = active, no number. This is a subset. The share of hits here may be higher or lower than overall.

SMILES	Beta apoptosis	AF4-AF9 inh	RanGTP-Impb inh	ALR H2O2 inh	FGF22 binding	Calb FLC	T cruzi inh	rRNA inh HTS	rRNA inh HTS OD600	rRNA inh HTS RFP
Cc1nc2ccccc2n1CC(=O)c1ccccc1	-7	3.2	-3.3	-6	i	-12	-10	-12	-10	-2.6
CC(NC(=O)c1cc2cc([N+](=O)[O-])ccc2oc1=O)C1CCCO1 (stereo not drawn)	-5	-1.0	3.2	-4	i	-26	-8	3	6	-4.1
C/C(=N\NC(=O)c1cccc(N/N=C(\C)c2ccncc2)c1)c1ccncc1	4	.	0.9	99*	.	2	6	.	.	.
Cc1c(NC(=S)NC(C)(C)C)c(=O)n(-c2ccccc2)n1C	0	-0.5	-1.0	17	i	5	-15	26	16	0.6
Cc1nn(Cc2ccc(Cl)cc2)c(C)c1NC(=O)CCCn1nc([N+](=O)[O-])c(Cl)c1C	1	.	-1.0	-2	.	-4	57*	.	.	.
COC(=O)c1ccccc1NC(=O)NCc1ccc2c(c1)OCO2	0	.	1.4	13	.	-11	-15	.	.	.
c1cc(CCCc2ccncc2)ccn1	-4	1.9	.	.	i	.	.	1	8	-2.0
CC(C)CN1CCN(Cc2cnc(-c3ccc(Cl)cc3)nc2)CC1CCO (stereo not drawn)	-1	-19	1.1	-5	i	-5	31	9	11	2.8
CCOC(=O)N1CCN(C(=O)c2cc3cc(F)ccc3[nH]2)CC1	0	-1.6	-1.3	-13	i	-11	1	-1	8	4.8
CC1Oc2ccccc2N(CC(=O)c2cccc(Cl)c2)C1=O (stereo not drawn)	4	.	?	6	.	-24	8	-4	-14	-3.6
CC(C)(CNC(=O)c1cc([N+](=O)[O-])ccc1N1CCC(Cc2ccccc2)CC1)N1CCOCC1	1	13	.	-42	i	.	.	.	.	.
O=C(CSCc1ccc(Cl)cc1)N1CCCCC1	-9	.	2.6	2	.	0	4	.	.	.
O=C(c1cc(-c2ccc(Cl)cc2Cl)on1)N1CCCCCC1	0	-7.5	-0.1	-1	i	-6	5	-23	-56	-7.0
COCc1cc(CN2CCCC(C(=O)c3cccc(C(F)(F)F)c3)C2)ccc1OC (stereo not drawn)	-3	-1.3	4.3	.	i	-13	66*	-11	-15	-2.7
COC(=O)COc1ccc(NC(=O)C2CCCO2)cc1 (stereo not drawn)	0	.	3.3	0	.	14	-1	.	.	.
NC(=O)c1nsc(C(=O)N(Cc2ccco2)C(C(=O)NCc2ccc(F)cc2)c2ccc(O)cc2)c1N (stereo not drawn)	3	4.8	0.0	4	i	-2	-10	-12	-32	4.3
CC(C)(C)C(=O)C1=C(O)C(=O)N(Cc2ccccc2)C1c1ccccc1F (stereo not drawn)	0	-1.1	-3.0	-7	i	33	26	-25	-20	-0.9
CC1=C(C(=O)Nc2ccccn2)C(c2ccc(F)cc2)n2ncnc2N1 (stereo not drawn)	-2	-14	-3.8	9	i	0	-10	6	0	-1.0
CC1(C)C(C(=O)OCC(Cl)(Cl)Cl)N2C(=O)C(NC(=O)Cc3ccccc3)C2S1=O (stereo not drawn)	-13	-7.4	3.5	0	i	0	16	6	3	-2.6
CN(CC(=O)Nc1ccc(Cl)c(Cl)c1)C(=O)C12CC3CC(CC(C3)C1)C2	0	1.8	-4.6	-4	i	0	22	1	7	2.5
COCCCNC(=O)C1=CCN(S(=O)(=O)c2ccc(C)cc2)CC1	-1	-4.6	5.1	10	i	-1	-35	0	6	-2.6
O=C(CSc1nnc(-c2ccccn2)n1Cc1ccccc1)N1CCCC1	.	.	0.4	0	.	-10	-9	.	.	.
CCc1cccc(NC(=O)CS(=O)Cc2nc(-c3ccc(C)cc3)oc2C)c1 (stereo not drawn)	-6	7.9	3.1	99*	i	-1	-8	-25	-41	1.2
COC(C(=O)Nc1ccc(S(=O)(=O)N2CCCCC2)cc1)c1ccccc1 (stereo not drawn)	2	-7.5	-2.1	-3	i	-16	-46	-5	-16	0.2
Cn1c(=O)n(C)c2cc([N+](=O)[O-])c(N3CCN(C(=O)c4ccccc4Br)CC3)cc21	11	-0.6	5.1	-3	i	-10	9	-20	-22	-2.7
SMILES	Beta apoptosis	AF4-AF9 inh	RanGTP-Impb inh	ALR H2O2 inh	FGF22 binding	Calb FLC	T cruzi inh	rRNA inh HTS	rRNA inh HTS OD600	rRNA inh HTS RFP
Cn1cccc1C(=O)OCC(=O)NNC(=O)c1ccc([N+](=O)[O-])cc1	-5	0.0	.	-8	i	.	.	-4	8	-0.1
O=C(O)C1C2CCC(C2)C1C(=O)NCCCn1ccnc1 (stereo not drawn)	-4	.	0.9	-13	.	-20	3	.	.	.
CC(C)OC(=O)c1cccc(C(=O)Nc2cccc(NC(=O)c3cccc(C(=O)OC(C)C)n3)n2)n1	-5	-0.9	2.4	0	i	?	-2	4	-2	0.2
CSc1nc2ccccc2nc1N(C)S(=O)(=O)c1ccc(C)cc1	1	6.3	7.3	.	i	-2	0	-25	-22	-0.9
O=C(Nc1cccnc1)c1cc(-c2ccc3c(c2)OCO3)on1	-1	.	-0.7	-11	.	-4	-10	.	.	.
CNC(=O)CSc1nnc(-c2ccc(S(=O)(=O)N3CCCC3)cc2)n1-c1cccc(C)c1C	-11	.	?	2	.	30	10	.	.	.
CC(C)Nc1nnc(SC(C)C(=O)NCc2ccc3c(c2)OCO3)s1 (stereo not drawn)	-2	-2.2	2.2	1	i	-5	-4	11	0	-1.4
O=C1c2cc(Cl)ccc2OC2(CCNCC2)C12CC(c1ccc(Cl)cc1)=NO2 (stereo not drawn)	6	.	-0.1	-8	.	-24	2	.	.	.
CCN(CC)S(=O)(=O)c1ccc(N/N=C(\C)c2ccc(OC)cc2O)nc1	97*	1.5	5.9	.	+	91*	52	-33	-32	-18
COc1ccc(-c2nc(N=Nc3ccc(O)cc3)n[nH]2)cc1	5	7.8	-4.7	.	i	-2	3	-27*	-7.1*	2.6*
CSc1cccc(CN2CCN(Cc3ccccc3)C(CCO)C2)c1 (stereo not drawn)	-6	3.9	-4.2	0	i	2	37	-5	-1	-2.6
COc1ccccc1NC(=O)c1ccc(NC(=O)C2CC2C)cc1 (stereo not drawn)	-1	-0.2	.	35	i	.	.	6	7	-1.2
CC(C)(C)OC(=O)CN1C(=O)C(Sc2n[nH]c(-c3ccccc3)n2)CCc2ccccc21 (stereo not drawn)	.	4.1	4.5	0	i	3	-1	-12	-8	7.6
Cc1cccc(NC2=NCC(=O)N2Cc2ccccc2)c1	-5	.	1.5	5	.	37	5	.	.	.
CC1=C(C)C(O)N(Cc2ccccc2)C1=O (stereo not drawn)	.	1.7	3.2	-1	i	1	-7	11	28	12
O=C(c1cc([N+](=O)[O-])ccc1N1CCOCC1)N1CCCC1	-7	.	-2.1	.	.	-7	-9	.	.	.
COCCC(=O)N1CCCC(C(=O)c2ccc3c4c(cccc24)CC3)C1 (stereo not drawn)	-5	0.7	1.0	-9	i	20	-8	-3	-5	-3.0
Cc1nn(CC(=O)c2ccccc2Cl)c(C)c1[N+](=O)[O-]	-4	2.4	1.3	-4	i	4	-5	-5	-3	2.9
O=C(NCCN1CCOCC1)c1ccccc1OCc1ccccc1	-4	0.6	.	-3	i	.	.	-10	-11	6.7
Cc1ccc(SCCSc2nc(N)cc(=O)[nH]2)cc1	2	0.7	3.4	12	i	23	-5	-10	-1	-2.7
Cc1ccc(C(=O)OCC(=O)NCc2cccs2)cc1	4	-4.2	-3.5	-6	i	-2	-16	15	5	0.8
CCOc1ccccc1NS(=O)(=O)c1ccc(-c2cnc(C3CC3)o2)cc1	45	-6.6	?	-1	i	24	-11	-38	-39	-8.6
COc1ccc(CN2C3CCCC2CC(NC(=O)Nc2ccccc2C)C3)cc1 (stereo not drawn)	-1	.	1.9	.	.	-19	12	.	.	.
COc1cc(Br)cc(C=Nc2cccc(C(F)(F)F)c2)c1O	-1	-8.0	-1.0	.	i	8	-14	16	10	-0.7
CSc1ccccc1C(=O)N1CCC2(CC1)CC(=O)c1ccccc1O2	.	-0.5	4.7	-2	i	-14	-3	-7	-2	-0.2
SMILES	Beta apoptosis	AF4-AF9 inh	RanGTP-Impb inh	ALR H2O2 inh	FGF22 binding	Calb FLC	T cruzi inh	rRNA inh HTS	rRNA inh HTS OD600	rRNA inh HTS RFP
COC(=O)CNC(=O)CN1C(=O)N(c2cccc(Cl)c2)C(N(O)C(=O)Nc2cccc(Cl)c2)C1(C)C (stereo not drawn)	-7	.	0.4	.	.	-5	-6	.	.	.
Cc1nc2ccc(-c3nc4ccccc4[nH]3)cc2[nH]1	35	-0.6	.	-5	i	.	-4	-9	2	-3.4
CCN(CC)c1ccc(/C=N/NC(=O)CNC(=O)c2ccccn2)cc1	-6	2.2	-2.0	95*	.	-5	12	0	-5	-0.1
CC#CCN1c2ccccc2[C@]23C[C@@H](C(=O)OC)N=C2NC(C(=O)OC)=C(C(=O)OC)[C@H]13	1	5.7	-0.8	-2	i	-14	-11	14	8	-4.2
CCOc1ccc(S(=O)(=O)n2cnc3ccccc32)cc1	-3	-3.8	-1.5	-6	.	-6	-2	10	8	-2.0
Cc1sc2ncnc(N3CCC(C(=O)Nc4ccccc4C(C)(C)C)CC3)c2c1C	3	-20	-2.0	-2	i	-2	13	1	8	0.7
Cc1ccc(Nc2c([N+](=O)[O-])ccc3nonc23)c(C)c1	8	4.7	-1.0	2	i	3	1	4	8	7.0
Fc1ccc(-c2csc3nnc(SCc4cccnc4)n23)cc1	-5	-2.8	-6.9	0	i	-31	-3	-8	-7	-7.9
O=C(NCc1ccccc1)C1C(=O)N(Cc2ccccc2)C(=O)C1C1(O)CCCC1 (stereo not drawn)	-3	.	-0.1	4	.	8	-13	.	.	.
O=C(NC1CC1)c1cc(=S)[nH]c2ccccc12	-5	-2.6	.	74	i	.	.	3	12	-3.4
CCC1CN(C(=O)N2CCC(C(=O)NCc3ccccc3OC)CC2)c2ccccc2O1 (stereo not drawn)	0	-6.4	-1.2	0	i	8	3	1	1	-8.9
Cc1ccc(C(=O)NCC(c2cccs2)N(C)C)cc1S(=O)(=O)N1CCOCC1 (stereo not drawn)	-7	2.1	.	.	i	.	.	12	13	0.8
CCCCCOC(=O)CSc1nc2c(c(=O)[nH]c(=O)n2C)n1CCc1ccccc1	-5	.	0.7	45	.	-8	.	.	.	.
CCOC(=O)N1CCC(N(CCN(C)C)C(=S)Nc2cccc(Cl)c2C)CC1	.	6.6	0.5	-3	i	4	-3	-2	5	6.1
CCCCn1c(=O)[nH]c(=O)c2c1nc(-c1ccccc1OC(F)F)n2C	-4	0.8	-1.5	.	i	0	5	3	5	1.2
CCc1[nH]nc2c1C1(CCN(C(=O)c3ccccc3)CC1)C(C#N)=C(N)O2	-3	4.2	-1.2	35	i	-3	-24	1	-1	-4.7
COc1ccc(CCNC(=O)c2c(O)c3cccc4c3n(c2=O)CC4)cc1OC	-3	.	-1.0	-13	.	-4	-12	.	.	.
